FGF22 binding = binders of recombinant human FGF22 by thermal shift; Q9HCT0; SYPRO orange fluorescence; percent of sucrose octasulfate shift, DMSO zero; calls only at 9.99 µM; actives 1.5% (n = 340,000); AID 651658;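 active = melting point raised past a set limit in the mean and every replicate; inconclusive = no clear call; three in four hits are not shown here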
Target sequence (Q9HCT0 whole entry, looked up): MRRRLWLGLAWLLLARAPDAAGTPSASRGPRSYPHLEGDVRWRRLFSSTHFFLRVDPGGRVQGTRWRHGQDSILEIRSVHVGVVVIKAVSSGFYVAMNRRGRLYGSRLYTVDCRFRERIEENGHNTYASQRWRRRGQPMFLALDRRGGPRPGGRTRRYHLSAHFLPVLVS
HNF4A DNA FP = change in binding of human HNF4 alpha to DNA; activity change, % at 10 µM; AID 1224865; actives 0.3% (n = 360,000); HNF4a-FITC DNA binding, fluorescence polarization, 1 h; in the data active = activity change above about 30%, passing the limit was not always enough;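 also: controls were the assay level and a saturating level of protein; the project sought stronger binding though the title names inhibitors; some compounds called inactive have numbers as strong as hits; positive values seem to mean higher polarization but the record does not say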
UCH37 inh = inhibitors of human deubiquitinating enzyme UCH37 | Q9Y5K5 | purified proteasome/UCH37, Ub-AMC cleavage fluorescence | inhibition, % (concentration not given with the values) | actives 0.33% (n = 330,000) | AID 588478;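 active = mean of two replicates above 20%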;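 also: 0% = compound-free wells with enzyme and 100% = wells lacking proteasome; stock transfer was 100 nL into about 20 µL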
Target sequence (Q9Y5K5 whole entry, looked up): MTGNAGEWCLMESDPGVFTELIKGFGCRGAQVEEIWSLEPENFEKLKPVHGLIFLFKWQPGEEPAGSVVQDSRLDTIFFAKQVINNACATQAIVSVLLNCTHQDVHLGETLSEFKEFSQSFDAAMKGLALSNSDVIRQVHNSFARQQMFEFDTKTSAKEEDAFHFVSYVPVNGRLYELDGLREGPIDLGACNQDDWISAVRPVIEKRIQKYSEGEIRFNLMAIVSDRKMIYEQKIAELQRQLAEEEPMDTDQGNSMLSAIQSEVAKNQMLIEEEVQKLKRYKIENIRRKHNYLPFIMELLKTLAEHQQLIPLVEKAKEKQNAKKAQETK
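Material: human UCH37 enzyme supplied as purified proteasome complex / Amount: 0.15 nM proteasome as dispensed / Buffer or medium: pH 7.4 Tris-HCl (50 mM) with ovalbumin, ATP-MgCl2, DTT / Times: preincubation 30 min, reaction 25 min, room temperature / Technique: AMC fluorescence from Ub-AMC cleavage, excitation 355 nm, emission 460 nm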
ALR H2O2 inh = inhibitors of human sulfhydryl oxidase ALR; P55789; purified ALR, DTT oxidation, H2O2 HRP-luminol luminescence; inhibition, % (concentration not given with the values); actives 3.8% (n = 290,000); AID 485317;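 active = mean and each replicate at 75% or more; inconclusive = only one of the two met; inactive = neither met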;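 also: stock transfer was 7.5 nL into about 7.5 µL; 0% = neutral wells and 100% = wells with inactivated enzyme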
Target sequence (P55789 whole entry, looked up): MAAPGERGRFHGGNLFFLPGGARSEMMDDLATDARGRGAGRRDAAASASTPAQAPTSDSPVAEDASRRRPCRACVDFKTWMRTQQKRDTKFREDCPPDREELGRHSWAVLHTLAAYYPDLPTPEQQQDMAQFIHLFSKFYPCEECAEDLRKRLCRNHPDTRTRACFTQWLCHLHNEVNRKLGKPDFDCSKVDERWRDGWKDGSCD
Beta2AR agonist = human beta-2 adrenergic receptor agonism by FAP | response, % (no concentration beside the values) | actives 0.43% (n = 340,000) | P07550 | Am2.2-beta2AR cells, FAP receptor internalization, flow cytometry; reference of the scale not given here;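 active = response above a set limit, near 3 SD of response in nonfluorescent compounds, cut at about 42% in these data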;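 also: stock transfer was 100 nL into about 11 µL; a reference agonist was the positive control; negative values mostly stem from fluorescent compounds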
E coli growth = E. coli growth inhibition | Escherichia coli growth, OD600, 23 h; active compounds read low | OD600 absorbance (concentration not given with the values) | actives 0.21% (n = 330,000);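 active = OD600 absorbance below the run mean of sample wells minus 3.6 SD, in any replicate, cut at about 0.56 in these data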;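 also: stock transfer was 300 nL into about 60 µL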
LANA-H2B inh = blocks KSHV LANA binding to histone H2A/H2B. cell-free LANA-H2A/H2B peptide, fluorescence polarization. actives 0.6% (n = 320,000). inhibition, % (no concentration beside the values); in the data active = inhibition mostly above about 10%, no sharp cut-off; inactive = mostly below about 6.7%;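 also: stock transfer was 7.5 nL into about 10 µL; 0% = median of vehicle wells and 100% = median of positive control wells; one replicate is shown; the record names a cut of 25% in any replicate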
Numbers without * were called inactive; i = inactive; u = inconclusive; x = no result given. Not all compounds are listed (hit frequency here may not be typical).

Order of results: FGF22 binding	HNF4A DNA FP	UCH37 inh	ALR H2O2 inh	Beta2AR agonist	E coli growth	LANA-H2B inh
Cc1ccc(O)c(-c2cc(-c3ccccc3[N+](=O)[O-])[nH]n2)c1
  x	1.0	7.3	65	2	0.65	1.9
Cc1cc(S(=O)(=O)NCc2ccccn2)c(Cl)cc1Cl
  i	0.0	3.1	-11	7	0.62	0.0
COCCN(Cc1ccccc1)C(=O)C1CCN(S(=O)(=O)c2ccc(OC)c(OC)c2)CC1
  i	-0.9	1.2	-5	0	0.71	-1.1
CC(C)(C)S(=O)(=O)N1Cc2ccc(CO)cc2[C@H]1CCO
  i	0.6	x	x	1	x	x
Cc1nnc(SCC(=O)NC2CCCc3c2cnn3-c2ccccc2F)o1 (centres undefined)
  i	3.1	1.1	-14	4	0.65	x
CCC(C)Sc1nnc(CSc2nc3nc(C)cc(C)n3n2)o1 (centres undefined)
  x	4.0	-1.1	x	-29	0.68	-4.2
CSc1ccc(S(=O)(=O)N2CCC(C(=O)NCCCn3ccnc3)CC2)cc1
  i	1.9	1.3	-13	-8	0.72	0.4
C=CCn1c(SCCC(=O)O)nnc1-c1cccs1
  x	-0.4	0.8	-2	-13	0.76	-7.7
O=C(O)CCCN1C(=O)c2cccc3cccc(c23)C1=O
  i	-0.8	x	-2	10	x	0.8
CC(NC(=O)c1ccccc1Br)c1nnc(SCc2ccc([N+](=O)[O-])cc2)n1C (centres undefined)
  i	0.0	-2.0	-9	1	0.75	4.5
Cc1ccc(NC(=O)N2CCC(c3ccccc3)C2)cc1C (centres undefined)
  i	0.4	5.3	-1	3	0.67	1.1
CCC1(C)Cc2c(sc3nc(NN)n(C)c(=O)c23)CO1 (centres undefined)
  x	-4.4	-1.5	x	3	0.76	-1.4
O=C(Nc1ccc(C(=O)N2CCCC2)cc1)C1CC1
  i	-0.5	x	x	-4	x	x
Cc1nn2c(-c3ccncc3)ccnc2c1Br
  x	3.6	0.3	x	3	0.68	x
CN1CCN(C(=O)C23CC4CC(C)(CC(C)(C4)C2)C3)CC1
  i	-0.8	1.9	5	0	0.65	-0.2
COC(=O)c1c(NC(=O)COC(=O)c2ccc(Cl)nc2)sc(C)c1C
  i	-3.9	-4.1	0	-4	0.66	-10
CSc1nc(N)c2c(C)c(C)sc2n1
  i	0.7	3.6	-6	-2	0.69	-7.7
CCOC(=O)c1cnc(SCc2nc(N)nc(Nc3ccc(OC)cc3)n2)nc1N
  x	6.0	0.0	6	3	0.67	-1.3
COc1ccc(CC(=O)OCC(=O)c2ccc(OC)cc2)cc1
  x	2.9	2.4	2	0	0.7	-2.2
CC(O)c1nc2ccccc2n1CCOc1ccccc1 (centres undefined)
  x	1.1	6.8	-1	8	0.72	0.4
CN(C(=O)c1cccc(NC(=O)Cc2ccc(NC(=O)C3CCCN(C(=O)CCc4ccccc4)C3)cc2)c1)C1CCC1 (centres undefined)
  i	-1.6	-0.5	x	-5	0.66	x
Cc1cc(C)cc(Oc2nn[nH]n2)c1
  x	-0.7	4.2	u	3	0.68	-4.9
O=c1[nH]c2c(cnn2-c2ccc(Cl)cc2)c(=O)n1-c1cccc(Cl)c1
  i	2.0	0.9	36	-1	0.64	0.4
Cc1ccc(SC(C)C(=O)Nc2ccncc2)cc1 (centres undefined)
  x	3.8	2.9	x	-3	0.67	x
Cc1ccccc1N1CCN(S(=O)(=O)c2nnc(NC(=O)c3ccc(F)cc3)s2)CC1
  i	0.3	4.1	-13	-3	0.68	0.6
CCCS(=O)(=O)c1nc(S(=O)(=O)c2ccc(C)cc2)c(N2CC(C)OC(C)C2)s1 (centres undefined)
  i	2.6	6.3	-1	-1	0.68	-4.1
O=C(Nc1cccc2ncccc12)c1ccc(Cl)cc1
  i	4.4	3.9	6	16	0.72	2.4
CCOCCCN(C(=O)Cn1nnc2ccccc21)C(C(=O)NCc1ccco1)c1ccncc1 (centres undefined)
  x	-0.4	3.4	x	-5	0.76	x
CCN(CC)CCNC(=O)C1c2ccccc2Oc2ccccc21
  i	0.1	1.9	0	-6	0.65	0.2
CCc1cccc(C)c1N1C(=O)CN(Cc2ccccc2)C1=S
  i	1.8	2.6	-23	1	0.68	-4.5
CCCCCn1c(NC(=O)c2ccco2)c(S(=O)(=O)c2ccc(C)cc2)c2nc3ccccc3nc21
  x	3.4	-193	-39	11	0.7	-0.7
COCCn1c(NC(=S)NC(=O)C2CC2)cc(=O)[nH]c1=O
  i	3.2	4.1	13	-4	0.69	4.9
CN1C2CCC1CC(NC(=O)c1ccc(Cl)cc1)C2 (centres undefined)
  i	-2.6	0.8	-7	1	0.66	7.9
Clc1ccc(-c2nc3cnccn3c2NC2CCCC2)cc1
  x	0.9	-317	99*	5	0.65	-4.5
COc1cccc(NC(=O)Cn2c(CCC(=O)O)ccc2-c2ccc(Cl)cc2)c1
  i	-1.7	-0.7	72	6	0.71	-2.5
Fc1ccc2[nH]c3c(N4CCSCC4)ncnc3c2c1
  x	-1.8	-11	u	15	0.71	3.4
COc1ccc(NC(=O)c2ccco2)cc1NC(=O)COc1ccccc1
  i	3.4	1.8	-6	-7	0.68	-5.5
C=CCC[C@@H](Cc1ccc(F)cc1)C(=O)OC[C@@H]1CCCN1C(=O)[C@@H](CC=C)CC(=O)N(CCO)Cc1ccccc1
  i	0.6	-0.3	-9	6	x	-8.2
O=C(CCNc1ccc(Cc2ccncc2)cc1)c1ccc([N+](=O)[O-])cc1
  i	2.6	4.8	6	-6	0.65	-3.3
CCc1c(C)nc2ncnn2c1N1CCCC(C(=O)NCc2cccs2)C1 (centres undefined)
  x	-0.4	3.8	-8	-4	0.65	-0.9

Overlap with the part before: 2 entries; new compounds follow.
Order of results: FGF22 binding	HNF4A DNA FP	UCH37 inh	ALR H2O2 inh	Beta2AR agonist	E coli growth	LANA-H2B inh
O=C(CCNc1ccc(Cc2ccncc2)cc1)c1ccc([N+](=O)[O-])cc1
  i	2.6	4.8	6	-6	0.65	-3.3
CCc1c(C)nc2ncnn2c1N1CCCC(C(=O)NCc2cccs2)C1 (centres undefined)
  x	-0.4	3.8	-8	-4	0.65	-0.9
O=S(=O)(NCC1CCCO1)c1ccc(S(=O)(=O)N(Cc2ccc(F)cc2)Cc2ccccn2)cc1 (centres undefined)
  x	-0.4	-1.8	-6	3	0.7	1.8
Cc1cc(OCc2nn[nH]n2)c2c(-c3ccccc3)cc(=O)oc2c1
  x	0.2	-11	3	-8	0.68	3.9
COc1cc(CNCCN2CCOCC2)ccc1OCc1cccc(Cl)c1
  x	-1.8	-0.2	0	3	0.73	-4.2
CC1CCc2cc(F)ccc2N1C(=O)CSc1nnc2c3cc(F)ccc3n(C)c2n1 (centres undefined)
  x	5.5	1.7	0	-5	0.7	5.2
CCOc1ccc(NC(=O)CNc2ccc(C)cc2Cl)cc1
  x	1.6	2.2	2	8	0.61	-1.6
C=CCNC(=O)COC(=O)c1cccnc1Nc1ccccc1F
  i	-0.1	4.2	-6	2	0.67	-1.1
CCCCCCCNC(=O)C1(CC2CC(c3ccc(Cl)cc3)=NO2)CCN(C(=O)c2cc(OCC)c(OCC)c(OCC)c2)CC1 (centres undefined)
  i	1.9	0.9	-7	7	0.8	1.2
CN1CCN(C(=O)C2=C[C@H](c3csc4ccccc34)C[C@H](OCCCCO)O2)CC1
  i	2.8	1.0	-13	-6	x	-3.6
CCOc1cc(-c2noc(N)c2C(=O)OC)cc(OCC)c1OCC
  x	3.1	-0.5	11	6	0.64	-9.3
O=C1NC(=O)/C(=C\c2ccc(Sc3ccc(Cl)cc3)o2)N1
  x	0.8	-2.7	90*	16	0.79	8.6
COc1ccc(OC)c(CCNC(=O)C(C)n2nc(C)c3c(C)n(-c4ccc(C)cc4)nc3c2=O)c1 (centres undefined)
  i	1.6	3.1	x	5	0.71	2.8
COc1ccc(/C=C/c2c(-c3ccccc3OC)sc3ccccc23)cc1OC
  i	0.8	-13	6	1	x	0.7
CC1=C(C(=O)OCc2ccccc2)C(/C=C/c2ccccc2)NC(=S)N1 (centres undefined)
  x	-1.8	4.4	-10	-12	0.7	-0.1
O=C(Cc1cccs1)NNC(=S)NC(=O)c1ccccc1
  i	-1.1	0.2	98*	6	0.63	-2.7
CC(C)CNC(=O)c1ccccc1NC(=O)CCSc1ccccc1
  i	-0.5	2.1	-5	-4	0.69	3.9
CC(C)(C)N1C(=O)[C@H]2[C@@H](c3ccc(Br)cc3)N3C(=O)N(c4ccccc4)C(=O)[C@@]3(Cc3ccccc3)[C@H]2C1=O
  i	0.1	27*	-2	-6	x	-1.8
CCN(C(=O)COC(=O)c1oc2ccc(OC)cc2c1C)C1CCS(=O)(=O)C1 (centres undefined)
  i	-0.5	-75	x	-9	0.72	x
O=C(Nc1ccc(Oc2cccnc2)cc1)C1CCN(Cc2ccccc2F)CC1
  i	2.8	0.7	x	-4	0.67	x
N=C(N)SCc1cn(-c2ccccc2)nc1-c1ccc(Br)cc1
  i	-2.3	18	x	21	0.069*	x
CCCn1c2ccccc2c2nnc(SCCN3CCOCC3)nc21
  i	2.6	8.8	96*	-8	0.67	2.7
Nc1cc(N)nc(SCC(=O)c2ccccc2)n1
  x	-2.5	-3.8	99*	1	0.71	-2.8
CCOC(=O)C(=Cc1c[nH]c2ccc(S(=O)(=O)N(C)C)cc12)C(=O)OCC
  i	2.0	6.0	4	19	0.69	-3.0
CCN(Cc1ccccc1)C(=O)COC(=O)Cn1cnc2ccccc21
  i	1.1	0.5	-4	4	0.68	3.9
CC(C)c1ccc(NC2CCCN(C(=O)c3cnn(C(C)C)c3)C2)cc1 (centres undefined)
  i	0.9	1.9	x	0	0.69	2.6
CCSc1cc(N2CCCC2)nc(-c2ccccc2Cl)n1
  i	-0.3	0.5	0	-5	x	-4.1
CCn1nc(C(=O)NCCc2ccc(S(N)(=O)=O)cc2)c2ccccc2c1=O
  x	0.3	-1.0	-8	0	0.68	3.6
COC(=O)CC(NC(=O)C1CC1)c1ccc2c(c1)OCO2 (centres undefined)
  i	6.9	0.4	-51	3	0.75	-0.9
NS(=O)(=O)c1ccc(OC(=O)CNC(=O)OCc2ccccc2)cc1
  i	1.2	3.0	5	-3	0.69	5.1
COc1ccc(C(=O)N/C(=C\c2ccco2)C(=O)NCc2ccco2)cc1
  x	-0.1	2.5	8	4	0.65	-0.7
CN(C)/C=N/c1cc(=O)n(Cc2ccccc2)c(=O)n1C
  i	-4.3	x	-11	3	x	2.1
COc1ccccc1OCCNC(=O)CCC(=O)N1CCOCC1
  i	3.3	2.4	x	2	0.68	x
CCNc1nc(NCC)nc(N(C#N)C(C)C)n1
  i	4.5	3.9	6	-6	0.69	0.7
C/C(=N/NC(=O)Nc1ccccc1)c1ccc(C)cc1
  i	0.5	x	-5	13	x	-2.3
CCCC(=O)NC(=S)Nc1cc(-c2nc3ncccc3o2)ccc1C
  i	0.9	5.2	3	-17	0.59	-1.9
Cc1cccc(N2C(=O)CC(N3CCN(c4cccc(C(F)(F)F)c4)CC3)C2=O)c1 (centres undefined)
  x	0.7	0.5	-1	2	0.7	1.6
Cc1ccnc(NC(=O)CCC(=O)N(CC(=O)NCCc2ccccc2)Cc2ccco2)c1
  x	0.8	1.8	x	0	0.79	x

In the list so far, these contain a tert-butyl group.
Order of results: FGF22 binding	HNF4A DNA FP	UCH37 inh	ALR H2O2 inh	Beta2AR agonist	E coli growth	LANA-H2B inh
CC(C)(C)S(=O)(=O)N1Cc2ccc(CO)cc2[C@H]1CCO
  i	0.6	x	x	1	x	x
CC(C)(C)N1C(=O)[C@H]2[C@@H](c3ccc(Br)cc3)N3C(=O)N(c4ccccc4)C(=O)[C@@]3(Cc3ccccc3)[C@H]2C1=O
  i	0.1	27*	-2	-6	x	-1.8

Screens from PubChem.
